Prx2 Sm inh: Schistosoma Mansoni Peroxiredoxins (Prx2); AID 448, 2006; S. mansoni Prx2 activity coupled to TGR/GSH (TGR is thioredoxin glutathione reductase), NADPH fluorescence loss, qHTS; some inactives read as strong as hits; Potency, µM; actives 0.07% (n = 65,000); Schistosoma mansoni peroxiredoxin 2 (Prx2); active means full or partial inhibition curve with a strong effect at the top dose; inconclusive means weaker partial or single-point curve; inactive means no accepted curve; also: series up to 57 µM; many of its hits are not listed in these tables
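Enzyme mix: 100 uM NADPH, 25 nM TGR, 700 uM GSH, 50 nM Prx2 in 100 mM phosphate pH 7.4, 10 mM EDTA, 0.01% Tween-20. 15 min RT with compound; NADPH/GSH added, H2O2 starts reaction; NADPH fluorescence read 8 min.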
Anthrax LT inh: qHTS Assay for Anthrax Lethal Toxin Internalization; Cells, anthrax lethal toxin internalization, FRET ratio (460/530); Potency, µM (highest dose often 40 µM), inactives show top-dose activity change, negative = inhibition, most hits filed as inhibitors; actives 0.67% (n = 70,000); active = well fitted falling ratio curve with the 530 nm signal flat; inconclusive = other ratio curves, or a change in one channel alone; inactive = flat curves in the ratio and both channels; the % refers to the ratio; also: % is scaled to controls: 0 for no effect and ±100 for the full control effect; nearly all actives have a fitted effect of over 50% in size; tested in ME-180 cells; beta-lactamase reporter
Numbers without * were called inactive; ? = inconclusive; · = not tested or not shown; & = joins results of further samples; [ ] = remark or other dose. Potency is read from the fitted curve at half-maximal effect.

mol | Prx2 Sm inh | Anthrax LT inh
COCCNC(=O)c1cc(-c2ccc3c(c2)OCO3)on1 | >57 | 0.4%
N[C@@H](Cc1ccc(O)c(O)c1)C(=O)O | >57&>57 | -10.0%[3.58 µM]
CC1CCc2nc(NC(=O)CN3CCN(Cc4ccc5c(c4)OCO5)CC3)sc2C1 (configuration not stated) | >57 | -1.3%
CCCCN(CC)C(=O)c1ccc(Cl)c(Cl)c1 | >57 | ·
Cc1ccc(-c2c3c(=O)n(C)c(=O)n(C)c3cn2-n2cnnc2)cc1 | >57 | ?
O=[N+]([O-])c1cccc2c[nH]nc12 | >57 | -10.2%
O=S1(=O)CCN2C=Nc3sc4c(c3C2=N1)CCCC4 | >57 | -8.6%
C=C1C=C(Br)C2(OCCCO2)[C@H]2OC12 (some centres not stated) | · | -4.8%[1.6 µM]
CCN1CCN(CC(O)COc2ccc(C)c(C)c2)CC1 (configuration not stated) | >57 | -4.9%
COc1ccc(OC)c(CCNC(=O)Cn2sc3nc(C)cc(C)c3c2=O)c1 | · | ?
N#CCCN(Cc1cccnc1)S(=O)(=O)c1ccc(S(=O)(=O)NC2CCCCC2)cc1 | >57 | -0.3%
CC(C)C12CC[C@@]3(CC[C@H]4[C@@](C)(CCC[C@]4(C)C(=O)O)[C@@H]3C1)[C@@H](CN)C2 | >57 | 3.2%[8 µM]

The last 6 compounds of the part before come first, to join the parts.
mol | Prx2 Sm inh | Anthrax LT inh
O=S1(=O)CCN2C=Nc3sc4c(c3C2=N1)CCCC4 | >57 | -8.6%
C=C1C=C(Br)C2(OCCCO2)[C@H]2OC12 (some centres not stated) | · | -4.8%[1.6 µM]
CCN1CCN(CC(O)COc2ccc(C)c(C)c2)CC1 (configuration not stated) | >57 | -4.9%
COc1ccc(OC)c(CCNC(=O)Cn2sc3nc(C)cc(C)c3c2=O)c1 | · | ?
N#CCCN(Cc1cccnc1)S(=O)(=O)c1ccc(S(=O)(=O)NC2CCCCC2)cc1 | >57 | -0.3%
CC(C)C12CC[C@@]3(CC[C@H]4[C@@](C)(CCC[C@]4(C)C(=O)O)[C@@H]3C1)[C@@H](CN)C2 | >57 | 3.2%[8 µM]
O=C(NCc1cccnc1)c1ccc(CS(=O)(=O)c2ccc(Cl)cc2)o1 | >57 | -12.3%
CCOC(=O)C1CCCN(c2cc(=O)n(Cc3ccc(F)cc3)c(=O)[nH]2)C1 (configuration not stated) | >57 | 19.7%
CC(=O)N1CCN(C(=O)c2cccc(S(=O)(=O)Nc3ccc(C)cc3)c2)CC1 | >57 | 5.1%
CCN(CC)CCCN1C(=O)C(O)=C(C(C)=O)C1c1cccc(OC)c1 (configuration not stated) | >57 | 3.8%
COc1ccc(N2CCN(CCNC(=O)CCNS(=O)(=O)c3cccs3)CC2)cc1 | >57 | -3.4%
Cc1ccc(-c2noc(CCC(=O)NCCCN3CCN(c4cccc(Cl)c4)CC3)n2)cc1 | >57 | -3.2%
Cc1cc(C(F)F)n2nc(C(=O)Nc3cc(C)on3)nc2n1 | >57 | 10.7%
CCc1ccc(-c2nc(CN3CCCC(C(=O)O)C3)c(C)o2)cc1 (configuration not stated) | >57 | -7.7%
CCCOc1cccc(NC(=O)c2c(-c3ccccc3)noc2C)c1 | >57 | -1.5%
COc1ccc(C)cc1NC(=O)c1ccc(S(=O)(=O)N2CCOCC2)cc1 | >57 | -10.0%
CC[C@H](C)[C@H](NS(=O)(=O)c1ccc(C)cc1)C(=O)N1CCC(C(=O)N[C@H](C(=O)O)C(C)C)CC1 | >57 | -8.4%
COc1cc2c(cc1OC)-c1cc(Nc3ccc4c(c3)OCCO4)nc(=O)n1CC2 | >57 | 4.7%

The results go on:
mol | Prx2 Sm inh | Anthrax LT inh
COc1ccc(-c2nn(C)c3sc(C(=O)N4CCOCC4)cc23)cc1OC | >57 | 6.8%
CC(=O)c1cccc(NC(=O)CCNS(=O)(=O)c2cccc3nsnc23)c1 | >57 | -5.2%
COc1ccc(Cl)cc1S(=O)(=O)N1CCN=C1C | >57 | -4.4%
CCOC(=O)N1CCC(n2c(SCC(=O)NCc3ccccc3)nc3ccccc3c2=O)CC1 | >57 | 11.3%
Cc1oc(-c2ccccc2F)nc1CS(=O)(=O)CC(=O)NCCN(C)C1CCCCC1 | >57 | -10.2%
C=CCn1c(SCC(N)=O)nc(C)cc1=O | >57 | -11.0%
CCC(C)(C)n1nnnc1C(c1cc2ccc(C)cc2[nH]c1=O)N(Cc1cccnc1)Cc1ccco1 (configuration not stated) | >57 | ?
Cc1noc(NS(=O)(=O)c2ccc(NC(=O)CSc3nc4ccccc4s3)cc2)c1C | ? | ?
O=c1[nH]c2c(s1)C=Nc1ccccc1N2 | >57 | -4.2%
COc1cccc(CNC(=O)c2ccc(NC(=O)C3CCCO3)cc2)c1 (configuration not stated) | >57 | 5.3%
CCc1nnc(NC(=O)c2ccc(S(=O)(=O)N(CC)CC)cc2)s1 | >57 | 1.9%
CCOC(=O)Cn1c(=O)oc2cc(S(=O)(=O)NCCc3ccc(C)cc3)ccc21 | >57 | 0.9%

Other compounds
mol | Prx2 Sm inh | Anthrax LT inh
COC(=O)[C@@]1(Cc2ccc(F)cc2)[C@H]2c3cc(C(=O)N4CCCC4)n(Cc4ccc(S(C)(=O)=O)cc4)c3C[C@H]2CN1C(=O)c1ccccc1 | >57 | ?
O=C1C2CCCN2C(c2ccc(Cl)cc2)N1c1ccccn1 (configuration not stated) | >57 | 4.6%
O=C(COc1cccc2cccnc12)N1CCc2ccccc2C1 | >57 | -15.4%
c1ccc(COc2ccc(OCCCn3cncn3)cc2)cc1 | >57 | -5.0%
Cc1ccccc1-n1c(SCC(=O)c2cc(C)n(C)c2C)nnc1-c1ccncc1 | >57 | -15.9%
O=C(O)c1cccc(OCc2ccccc2Cl)c1 | >57 | -11.2%
O=C(Nc1ncc(Cc2ccccc2)s1)C1CCCO1 (configuration not stated) | >57 | -3.4%
COC(=O)CSc1nc2nc(C)cc(C)n2n1 | >57 | -1.7%
c1ccc2c(c1)nnn2-c1ncnc2sc3c(c12)CCCC3 | >57 | -11.4%
O=C(O)c1ccc(C(=O)O)cc1 | · | -5.8%
C/C(CCN1CCc2nc(-c3ccccc3)c(-c3ccccc3)cc2C1)=N\O[C@@H](C)c1cn([C@H](CO)Cc2ccccc2)nn1 | · | 3.4%&-9.7%[8 µM]
Cc1cc(C(C)c2ccccc2)c(O)c(CN2CCOCC2)c1C (configuration not stated) | >57 | ?

(list continues)
mol | Prx2 Sm inh | Anthrax LT inh
O=P(N[C@@H](c1ccccc1)[C@@H]1C[C@H]1CO)(c1ccccc1)c1ccccc1 | · | 1.5%
Cc1cc(NC(=O)CSCc2nc(-c3cccc(Cl)c3)oc2C)no1 | >57 | -2.0%
CN(C)C(CNC(=O)c1cccnc1Sc1ccccc1)c1ccco1 (configuration not stated) | >57 | -0.3%
CCC(C)NC(=O)Cn1c(=O)n(CCCCC(=O)NCc2ccco2)c(=O)c2ccccc21 (configuration not stated) | >57 | 3.2%
CCOCCCn1c(=N)c(C(=O)NCc2ccc3c(c2)OCO3)cc2c(=O)n3ccccc3nc21 | >57 | ?
N#Cc1c(N)c(C#N)c(-c2ccc3c(c2)OCO3)c2c1CCCC2 | >57 | ?
Cc1ccc2oc(=O)c3cnn(CC(=O)N(CCCN4CCOCC4)Cc4ccco4)c3c2c1 | >57 | ?
CN1CCc2cc(Cl)c(O)cc2[C@H]2c3ccccc3CC[C@@H]21 | · | ?
N#C/C(=C\N1CCNC1=S)C(=O)c1ccc2ccccc2c1 | >57 | -3.6%[8 µM]
COc1ccc(C(=O)N2CCN=C2c2ccccc2)cc1OC | >57 | -3.0%
C=CCSc1nc2ccccc2n1Cc1nnc(-c2cccs2)o1 | >57 | ?
CCCC(=O)Nc1ccc(NC(=O)c2cccc(OC)c2)nc1 | >57 | 12.2%

The list continues.
mol | Prx2 Sm inh | Anthrax LT inh
CN1C(=O)c2ccccc2C(C(=O)NCc2ccco2)C1c1c[nH]c2ccccc12 (configuration not stated) | >57 | -4.1%
O=C1C2(Cl)C3(Cl)C4(Cl)C(Cl)(Cl)C5(Cl)C3(Cl)C1(Cl)C5(Cl)C24Cl (configuration not stated) | · | ?
FC(F)(F)c1cc(CO[C@@H]2CCCN[C@H]2c2ccccc2)cc(C(F)(F)F)c1 | >57 | 12.9%
COc1ccc(N2CCN(C(=O)CSc3nc4c(c(=O)n(C)c(=O)n4C)n3C(C)C)CC2)cc1 | >57 | -0.9%
COc1ccc(NC(=O)CN2CCN(c3ccc(Cl)cc3)CC2)c(OC)c1 | >57 | -5.1%
CCCn1nc(C(=O)NCCc2ccc(S(N)(=O)=O)cc2)c2ccccc2c1=O | >57 | -4.5%
Cc1cccc(C)c1OC[C@@H](N)C(C)C | >57 | -0.4%
C=Cc1c(C)c2cc3nc(cc4[nH]c(cc5nc(cc1[nH]2)C(C)=C5CCC(=O)O)c(CCC(=O)OC)c4C)[C@@]1(C)C3=CC=C(C(=O)OC)[C@H]1C(=O)OC (tested in a mixture with another compound) | >57 | 0.1%[3.58 µM]
O=C(Cn1ncc2c(=O)oc3ccccc3c21)N1CCc2ccccc2C1 | >57 | -11.0%
CCOCCOc1nc2c(c(=O)n(C)c(=O)n2C)n1Cc1ccc(C)cc1 | >57 | -4.8%
CCOC(=O)C1CCN(c2c(NCc3ccc(C(=O)NC(C)CC)cc3)c(=O)c2=O)CC1 (configuration not stated) | >57 | -15.5%
Cc1onc(-c2ccccc2Cl)c1C(=O)Nc1ccc(F)c(F)c1 | >57 | -23.6%

Other entries.
mol | Prx2 Sm inh | Anthrax LT inh
CCc1nc(SCC(=O)Nc2cc(C)on2)c2c(=O)n(C)c(=O)n(C)c2n1 | >57 | 3.2%
COc1ccc(NC(=O)Nc2nnc(C(C)C)s2)cc1 | >57 | ?
Cn1c(C(=O)N(Cc2ccccc2)Cc2cccs2)cc2sccc21 | >57 | ?
Nc1c(C(=O)NC2CCCC2)c2nc3ccccc3nc2n1/N=C/c1cccnc1 | >57 | 4.3%
O=C(CC(C(=O)O)N1CCOCC1)Nc1ccc(Cl)cc1 (configuration not stated) | >57 | 9.9%
CN(C)c1ncc2nc(CCc3ccccc3)c(=O)n(CCc3ccccc3)c2n1 | >57 | ?
O=C(CN1C(=O)c2ccccc2S1(=O)=O)N1CCOCC1 | >57 | 1.5%
Cc1cc(C)n(C(=O)CNC(=O)Cc2ccccc2)n1 | >57 | 2.4%
O=c1c2c3c(sc2nc2n1CCCCC2)CCCC3 | · | -8.6%
O=C(COc1ccccc1)N1CCN(CC(O)COc2ccccc2)CC1 (configuration not stated) | >57 | ?
CCCCCCOC(=O)C(C#N)c1nc2ccccc2nc1N1CCN(CC)CC1 (configuration not stated) | >57 | 4.4%
c1ccc([C@H](c2cccc3c2ccc2ccccc23)[C@H](c2ccccc2)c2cccc3c2ccc2ccccc23)cc1 | >57 | 2.9%[8 µM]

Next section
mol | Prx2 Sm inh | Anthrax LT inh
Cc1noc(C)c1C(=O)Nc1ccccn1 | >57 | 4.3%
Cc1c(C(=O)NCC(C)C)sc2nc(-c3ccc(F)cc3)cn12 | >57 | 8.0%
CC1(C)CC(=O)c2cc(C(=O)N3CCCCC3)c(=O)n(-c3ccc(Cl)cc3)c2C1 | >57 | -8.2%
O=C(COC(=O)Cc1ccc(S(=O)(=O)N2CCOCC2)s1)NCc1ccccc1 | >57 | -3.1%
CC(C)(C)NC(=O)NC(=O)COC(=O)C1CC(=O)N(Cc2ccccc2)C1 (configuration not stated) | >57 | -6.0%
Cc1ccc(C2/C(=C(/O)c3ccc(Cl)cc3)C(=O)C(=O)N2CC2CCCO2)o1 (configuration not stated) | >57 | 0.6%
CCOC(=O)c1sc(C)c(C(N)=O)c1NC1=NCCCCC1 | >57 | -11.4%
C[C@@H](NCc1cc(Br)cc2[nH]c(=O)c(=O)[nH]c12)P(=O)(O)O | >57 | 2.7%
COc1cc(C2NC(C(=O)O)CS2)ccc1OCc1ccccc1C#N (configuration not stated) | >57 | -15.4%
O=C(NCCN1CCOCC1)c1ccc2c(c1)ncn2C1CCCCC1 | >57 | 8.9%
CCC(=O)Nc1cccc(NC(=O)COc2ccc(OC)cc2)c1 | ? | -5.0%
O=C(O)CCC(=O)N1CCc2cc(S(=O)(=O)NC3CCCC3)ccc21 | >57 | -8.7%

The listing continues:
mol | Prx2 Sm inh | Anthrax LT inh
O=C1NC(=O)C2C3c4ccccc4C(c4ccccc43)C12 (configuration not stated) | >57 | 6.2%
O=C(Cn1cnc2c(nnn2-c2ccccc2)c1=O)N1CCC(Cc2ccccc2)CC1 | >57 | ?
O=c1c2ccccc2nnn1CSc1ncnc2ccccc12 | >57 | -6.2%
CCCN(CC1CC1)S(=O)(=O)c1ccc(S(N)(=O)=O)cc1 | >57 | -0.5%
CCc1ccc(N2CC(C(=O)OCC(=O)Nc3cc(C)on3)CC2=O)cc1 (configuration not stated) | >57 | 5.6%
O=C1CC(C(=O)N(c2ccc(F)cc2)C(C(=O)NC2CCCC2)c2ccccn2)CS1 (configuration not stated) | >57 | 5.1%
COC(=O)c1cc(OC)c(OC)cc1NC(=O)CC1CCCCC1 | >57 | 5.4%
O=C1c2cccnc2C(=O)N1c1ccccc1-c1ccccc1 | >57 | -14.3%
CCc1c(C)nc2ncnn2c1N1CCCC(C(=O)NCc2ccco2)C1 (configuration not stated) | >57 | 5.6%
O=C(C[N+]12CN3CN(CN(C3)C1)C2)c1ccc(-c2ccccc2)cc1 | >57 | 0.8%[8 µM]
Nc1ccccc1NC1=CC(=O)CC(c2ccco2)C1 (configuration not stated) | >57 | -13.7%

These rows are one share of the data; count on the stated rates, not on these rows.
